FLuc modulator – qHTS profiling assay for firefly luciferase inhibitor/activator using purifed enzyme and Km concentrations of substrates (counterscreen for miR-21 project); purified FLuc, Km substrates, luminescence inhibition; Potency, µM (titrated, usually from 57.5 µM), inactives show at the top dose activity change, negative = inhibition, hits mostly inhibitors; 360,000 tested, 6.9% active;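 also: potency is read from the fitted curve at half-maximal effect; plate controls were vehicle for no effect and reference inhibitor for full effect; nearly all actives have a fitted effect of over 55% in size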
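Purified P. pyralis luciferase, 10 nM final, with Km-level 10 uM D-luciferin and 10 uM ATP in 50 mM Tris acetate pH 7.5, 10 mM Mg acetate, 0.01% Tween-20, 0.05% BSA; 6-point qHTS titration about 60 µM downward; luminescence read.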
Rab9 prom act – qHTS Assay for Rab9 Promoter Activators; Huh7 Rab9 promoter-luciferase reporter, luminescence, 24 h; Potency, µM (top dose mostly 9.22 µM), for inactives: at the highest dose activation, negative = inhibition, most hits filed as activators; 320,000 tested, 2.8% active; also: potency is read from the fitted curve at half-maximal effect; % of control where 0% means no effect; nearly all actives have a fitted effect of over 60% in size
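Promoter activation is measured as luciferase luminescence in Huh7 cells stably transfected with a Rab9 promoter–luciferase construct, following 24 h compound exposure at 37 °C and 10 min reagent incubation at ambient temperature.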
NPC1 prom act – qHTS Assay for NPC1 Promoter Activators; Huh7 NPC1 promoter luciferase reporter, 24 h; Potency, µM (top dose mostly 9.22 µM), inactives show at the top dose activation, actives largely listed as activators; 320,000 tested, 2.4% active; AID 485313, 2010;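 also: potency is read from the fitted curve at half-maximal effect; % of control where 0% means no effect; nearly all actives have a fitted effect of over 60% in size; reporter is driven by a mutant NPC1 promoter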
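Quantitative HTS used a cell-based reporter: Huh7 cells stably bearing the NPC1 promoter upstream of luciferase were treated with compounds for 24 h, and promoter activation was read as luminescence.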
KCNH2 3.1 block – qHTS for Inhibitors of KCHN2 3.1: Mutant qHTS; Potassium voltage-gated channel subfamily H member 2, brain isoform KCNH2 3.1 (human); U2OS KCNH2 3.1, thallium flux FluxOr; stronger effect = lower value; activity change, % (tested at about 1.8 µM); 340,000 tested, 0.95% active; AID 720553, 2013;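 active = maximum activity change below -70%; inconclusive = maximum activity change from -70% to -50%; inactive = maximum activity change above -50%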;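 also: thallium influx rate constant from kinetic fluorescence after stimulation buffer; % is scaled to controls: 0 for no effect and ±100 for the full control effect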
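Kinetic fluorescence (2 min after stimulation buffer) measures Tl+ influx through KCNH2 3.1 expressed by viral transduction in U2OS cells; the rate constant is normalized against DMSO controls serving as positive and negative references.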
Gal4-VP16 FLuc – VP16 counterscreen qHTS for inhibitors of ROR gamma transcriptional activity. 310,000 tested, 3.5% active. Drosophila S2 Gal4-VP16 UAS-luciferase, luminescence, 20 h. Potency, µM (doses to about 53.6 µM), for the others: at the highest dose activity, negative = inhibition, hits mostly inhibitors;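 also: Gal4-VP16 expression switched on by copper sulfate through the metallothionein promoter; potency is read from the fitted curve at half-maximal effect; % is scaled to controls: 0 for no effect and ±100 for the full control effect; nearly all actives have a fitted effect of over 50% in size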
Mito fusion act – qHTS Assay for Small Molecule Inhibitors of Mitochondrial Division or Activators of Mitochondrial Fusion; S. cerevisiae fusion-defective mutant growth rescue, CellTiterGlo 48 h; Potency, µM (series often up to 46.1 µM), for the others: at the highest dose growth rescue (activation), most hits filed as activators; 320,000 tested, 0.23% active;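 also: potency is read from the fitted curve at half-maximal effect; % of control where 0% means no effect; nearly all actives have a fitted effect of over 45% in size; temperature-sensitive fusion mutants such as fzo1-1 at 37 °C on non-fermentable ethanol glycerol medium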
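Growth-rescue viability read-out: after 48 h at the non-permissive 37C in glycerol/ethanol YPEG, yeast mitochondrial fusion mutants are measured by CellTiterGlo luminescence; compounds (23 nl pinned per well) restoring growth score as division inhibitors or fusion activators.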
MBNL1-CUG inh – qHTS Assay for Inhibitors of MBNL1-poly(CUG) RNA binding | TR-FRET MBNL1-His/biotin-(CUG)12 binding, 665/545 ratio | 280,000 tested, 0.036% active | Muscleblind-like protein 1 (Homo sapiens), Q9NR56 | Potency, µM (highest dose often 57.5 µM), for the others: at the top dose activity change, negative = inhibition, actives largely listed as inhibitors; active = well fitted inhibition curve with a large enough effect in the signal ratio, with a control signal flat, not every such curve was filed as active; inconclusive = small, poorly fitted or top-dose-only effect, or effect the other way, or a change in a side signal; inactive = no such curve, though single readings can be large or run the other way; the % refers to the signal ratio; also: potency is read from the fitted curve at half-maximal effect; % is scaled to controls: 0 for no effect and ±100 for the full control effect
Target sequence (Q9NR56 whole entry, looked up): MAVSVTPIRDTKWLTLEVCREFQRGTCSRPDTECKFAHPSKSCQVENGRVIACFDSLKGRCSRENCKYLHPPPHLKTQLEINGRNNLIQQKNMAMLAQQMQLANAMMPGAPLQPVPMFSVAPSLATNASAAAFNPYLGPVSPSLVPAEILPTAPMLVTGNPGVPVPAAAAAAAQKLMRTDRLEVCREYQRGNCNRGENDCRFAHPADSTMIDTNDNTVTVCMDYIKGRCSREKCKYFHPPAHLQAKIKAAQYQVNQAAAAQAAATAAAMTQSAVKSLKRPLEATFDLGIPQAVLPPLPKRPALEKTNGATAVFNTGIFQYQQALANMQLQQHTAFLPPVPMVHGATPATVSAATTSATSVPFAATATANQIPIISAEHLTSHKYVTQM
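Inhibition of protein-RNA binding appears as loss of TR-FRET between terbium anti-His antibody on MBNL1-His and streptavidin-XL665 on biotin-(CUG)12. Activity is normalized to buffer-only and uninhibited-complex controls.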
ELG1 repair inh – qHTS screen for small molecules that inhibit ELG1-dependent DNA repair in human embryonic kidney (HEK293T) cells expressing luciferase-tagged ELG1 | HEK293T ELG1-luciferase reporter, luminescence, 16 h; DNA damage induced by 5-fluorouridine | Potency, µM (highest dose often 46.1 µM), for the others: top-dose activity change, negative = inhibition, actives largely listed as inhibitors | 330,000 tested, 2.3% active | AID 504467, 2011; also: potency is read from the fitted curve at half-maximal effect; % is scaled to controls: 0 for no effect and ±100 for the full control effect; nearly all actives have a fitted effect of over 55% in size
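Cells (2,000 per well) received 5-fluorouridine plus test compound or DMSO and were incubated 16 hr at 37 °C, 5% CO2. Luciferase activity was read by luminescence 30 min after ONE-Glo addition; signal suppression marked inhibition of damage-induced ELG1 function.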
RORgamma inh – qHTS for inhibitors of ROR gamma transcriptional activity | Potency, µM (titrated, usually from 53.6 µM), without a hit: at the top dose activity change, negative = inhibition, hits mostly inhibitors | 310,000 tested, 5.4% active | Drosophila S2 Gal4-RORgamma UAS-luciferase reporter, 20 h | AID 2551, 2010 | Nuclear receptor ROR-gamma (Mus musculus), P51450; also: potency is read from the fitted curve at half-maximal effect; % is scaled to controls: 0 for no effect and ±100 for the full control effect; nearly all actives have a fitted effect of over 60% in size
Target sequence (P51450 whole entry, looked up, the tested form may be a part): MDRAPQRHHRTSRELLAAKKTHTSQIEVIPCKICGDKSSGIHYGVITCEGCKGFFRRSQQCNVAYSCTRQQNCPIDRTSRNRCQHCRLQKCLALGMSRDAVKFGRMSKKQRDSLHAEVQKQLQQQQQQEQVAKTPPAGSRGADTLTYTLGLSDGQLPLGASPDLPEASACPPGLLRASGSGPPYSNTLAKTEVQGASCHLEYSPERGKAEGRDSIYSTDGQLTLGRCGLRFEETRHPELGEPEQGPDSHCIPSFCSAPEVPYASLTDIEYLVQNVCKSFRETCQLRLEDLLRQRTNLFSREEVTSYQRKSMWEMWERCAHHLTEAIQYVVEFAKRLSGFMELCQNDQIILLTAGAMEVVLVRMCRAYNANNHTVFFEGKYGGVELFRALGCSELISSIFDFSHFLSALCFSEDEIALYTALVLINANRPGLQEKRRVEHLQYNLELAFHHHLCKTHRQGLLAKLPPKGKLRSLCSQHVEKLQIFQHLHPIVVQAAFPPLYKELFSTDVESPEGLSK
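Stably transfected Drosophila Schneider cells are the test system, with ROR gamma fused to Gal4 and luciferase under UAS control; luminescence is read after 20 hr of 700 uM copper sulfate induction at ambient temperature.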
Menin-MLL TR inh – qHTS Assay for Inhibitors Targeting the Menin-MLL Interaction in MLL Related Leukemias: Competition With Texas Red Labeled MLL-derived Mutant Peptide | Potency, µM (doses to about 61.6 µM), for inactives: top-dose FP activity change, negative = inhibition, hits mostly inhibitors | O00255 | Menin + Texas Red MLL mutant peptide, fluorescence polarization | 270,000 tested, 0.23% active; active = well fitted inhibition curve with a large enough effect in the polarisation, with a control signal flat, not every such curve was filed as active; inconclusive = small, poorly fitted or top-dose-only effect, or effect the other way, or a change in a side signal; inactive = no such curve, though single readings can be large or run the other way; the % refers to the polarisation; also: potency is read from the fitted curve at half-maximal effect; % of control where 0% means no effect; many of its hits are not listed in these tables
The depositor's hits bear a star; ? = inconclusive; . = not tested or not shown; [ ] = dose if it differs, or a comment. Unless noted, calls follow the shape of the dose curve; as a rule, active = well fitted curve in the direction sought with a large enough effect; inconclusive = small, poorly fitted or top-dose-only effect, or another doubt; inactive = no such curve, though single readings can be large; an effect the other way counts as inactive or inconclusive.

Each structure is followed by: KCNH2 3.1 block | Menin-MLL TR inh | Rab9 prom act | RORgamma inh | ELG1 repair inh | NPC1 prom act | MBNL1-CUG inh | Gal4-VP16 FLuc | FLuc modulator | Mito fusion act
> COc1ccc(C2Nc3ccccc3C(=O)N2NC(=O)c2ccccc2)cc1OC (stereo unspecified)
  0.8 | 0.3% | 3.8% | 21.9% | -4.4% | 3.0% | -5.6% | 28.2% | 2.6% | 8.8%
> CC1(C)NC(=O)N(CC(O)CN2C(=O)CCC2=O)C1=O (stereo unspecified)
  -39.4 | 42.8%[activator] | -1.5% | -16.0% | 0.9% | 0.9% | -6.1% | 12.0% | -0.3%[2.3 µM] | -6.0%
> Cc1ccc(S(=O)(=O)N2CCN(C(=O)CN3CCOCC3)C2)cc1
  -2.7 | -8.4% | 2.8% | -19.9% | 18.0% | -3.2% | -1.4% | 0.0% | -0.1% | 1.1%
> COc1cccc2sc3ccc(C#CC4(N)CCCCC4)cc3c(=O)c12
  35.0 | -20.9% | 20.8% | -36.1% | ? | 24.3% | 20.0% | 1.6% | 19µM* | -4.7%
> Cc1nn(C)c(Cl)c1C(=O)NC(C(=O)O)c1ccccc1 (stereo unspecified)
  12.2 | 13.7% | -2.8% | 15.3% | 11.7% | -2.7% | 2.1% | -5.9% | -3.4% | 0.7%
> Cc1cc(C)nc(N2CCCC(C(=O)NC3CC3)C2)n1 (stereo unspecified)
  1.3 | 6.9% | 2.6% | 2.5% | -0.8% | -1.4% | -4.0% | 1.2% | -0.3% | 6.5%
> COc1ccc(C(=O)OCCN2C(=O)c3ccccc3C2=O)cc1
  -27.7 | 1.9% | 5.6% | 3.3% | 13.6% | -5.2% | 10.2% | 3.5% | ? | 4.7%
> CCOC(=O)C(NCc1ccc2c(c1)OCO2)(NC(=O)CC)C(F)(F)F (stereo unspecified)
  -17.3 | 5.8% | -0.6% | -23.0% | -5.4% | -2.4% | 2.3% | -8.9% | 1.5% | 5.6%
> CN(Cc1cnn(C)c1)Cc1nc(Cc2ccccc2Cl)no1
  4.4 | 5.4% | -5.8% | 28.0% | 10.1% | -3.9% | -4.0% | -11.0% | 2.2% | 9.5%
> CC(=O)c1ccc(N2CCN(C(=O)c3cccs3)CC2)c(F)c1
  -3.6 | 4.2% | 0.0% | ? | ? | 20.7% | -8.3% | 15.6% | 3.3% | 0.7%
> O=C(Nc1cccc(Oc2ccc3c(c2)C(=O)NC3=O)c1)c1cccs1
  -18.9 | 18.4% | 1.0% | 21.4% | ? | 0.1% | 14.4% | -7.3% | -10.7% | 13.0%
> ClC1(Cl)CC1Cn1c(C2CC2)nc2ccccc21 (stereo unspecified)
  5.8 | -5.0% | 0.8% | 14.3% | ? | -4.5% | -1.4% | 7.4% | -0.6% | 4.7%
> CCN(CC)C(=O)C1CCN(Cc2cn(C)nc2-c2ccc(Oc3ccccc3)cc2)CC1
  -6.0 | ? | 0.7% | -24.3% | 1.5% | -4.1% | -4.2% | -9.9% | 8.6% | 2.4%
> CCOC(=O)Cn1c(=O)c(F)cn(Cc2ccc(OC)c([N+](=O)[O-])c2)c1=O
  12.1 | -0.1% | -1.0% | 6.1% | 9.4% | -3.4% | ? | 8.2% | 2.4% | 0.2%
> CC(=O)Nc1sc2c(c1C(N)=O)CCCC2
  8.0 | ? | 8.9% | 30.0% | 8.0% | -2.2% | 4.7% | 9.7% | 2.7% | 0.6%
> O=C(CN1CCOCC1)c1c[nH]c2ccccc12
  -13.6 | 25.0% | 0.7% | -24.9% | 2.2% | -2.9% | -2.0% | 0.1% | 4.8% | 0.6%
> Cc1cccc(NC(=O)CSc2nnc(CSc3nc(C)cc(C)n3)n2Cc2ccco2)c1
  -7.2 | 0.0% | 7.4% | 31.8% | ? | 5.8% | -10.3% | 3.5% | 0.0% | 1.0%
> Cc1cc2c(c(=O)o1)C(C(C)C)C(C#N)=C(N)O2 (stereo unspecified)
  -48.9 | -5.7% | -6.0% | -17.5% | -4.0% | -0.2% | -9.4% | -2.8% | 3.9% | -1.3%
> O=C(CCn1c(=S)oc2ccccc21)N1CCCCC1
  -2.8 | -13.5% | 20.0% | 14.1% | 29.3% | 8.6% | . | 2.8% | -15.0% | 7.7%
> CCCCc1c(O)nc(SCC(=O)c2ccccc2)[nH]c1=O
  5.9 | -26.3% | 0.5% | 17.6%[0.365 µM] | 13.3% | -0.2% | -4.1% | . | 6.9% | -4.1%

Ordered by the number under Rab9 prom act (largest number first): 7 of the compounds above.
Molecule | Rab9 prom act
CC(=O)Nc1sc2c(c1C(N)=O)CCCC2 | 8.9%
Cc1cccc(NC(=O)CSc2nnc(CSc3nc(C)cc(C)n3)n2Cc2ccco2)c1 | 7.4%
COc1ccc(C2Nc3ccccc3C(=O)N2NC(=O)c2ccccc2)cc1OC (stereo unspecified) | 3.8%
Cc1ccc(S(=O)(=O)N2CCN(C(=O)CN3CCOCC3)C2)cc1 | 2.8%
CCN(CC)C(=O)C1CCN(Cc2cn(C)nc2-c2ccc(Oc3ccccc3)cc2)CC1 | 0.7%
CC(=O)c1ccc(N2CCN(C(=O)c3cccs3)CC2)c(F)c1 | 0.0%
CCOC(=O)Cn1c(=O)c(F)cn(Cc2ccc(OC)c([N+](=O)[O-])c2)c1=O | -1.0%

(next part)
Each structure is followed by: KCNH2 3.1 block | Menin-MLL TR inh | Rab9 prom act | RORgamma inh | ELG1 repair inh | NPC1 prom act | MBNL1-CUG inh | Gal4-VP16 FLuc | FLuc modulator | Mito fusion act
> Cn1c(NC(=O)C(C)(C)Oc2ccc(Cl)cc2)cc(=O)n(C)c1=O
  25.4 | -7.6% | 0.3% | 21.7% | -3.0% | -0.7% | 1.7% | -6.0% | 1.8% | -0.3%
> O=C(CCn1nc(-c2ccc(Cl)cc2)c2ccccc2c1=O)NCCN1CCOCC1
  24.5 | 1.2% | 2.0% | 4.1% | 2.7% | -1.3% | 6.6% | -2.5% | 3.6% | 0.3%
> COc1ccc(NC(=O)Nc2cccc(C(=O)N3CCOCC3)c2)cc1OC
  13.9 | 13.7% | 3.1% | -12.5% | 6.4% | 0.4% | -7.4% | -11.5% | ? | -1.5%
> O=C(Nc1nnc(C23CC4CC(CC(C4)C2)C3)s1)c1ccco1
  -12.0 | 0.4% | 1.78µM* | 10.9% | ? | 1.78µM* | -8.2% | -0.5% | 2.13µM* | -2.0%

For reference, part of the list above:
Each structure is followed by: KCNH2 3.1 block | Menin-MLL TR inh | Rab9 prom act | RORgamma inh | ELG1 repair inh | NPC1 prom act | MBNL1-CUG inh | Gal4-VP16 FLuc | FLuc modulator | Mito fusion act
> Cn1c(NC(=O)C(C)(C)Oc2ccc(Cl)cc2)cc(=O)n(C)c1=O
  25.4 | -7.6% | 0.3% | 21.7% | -3.0% | -0.7% | 1.7% | -6.0% | 1.8% | -0.3%
> O=C(CCn1nc(-c2ccc(Cl)cc2)c2ccccc2c1=O)NCCN1CCOCC1
  24.5 | 1.2% | 2.0% | 4.1% | 2.7% | -1.3% | 6.6% | -2.5% | 3.6% | 0.3%
> COc1ccc(NC(=O)Nc2cccc(C(=O)N3CCOCC3)c2)cc1OC
  13.9 | 13.7% | 3.1% | -12.5% | 6.4% | 0.4% | -7.4% | -11.5% | ? | -1.5%
> O=C(Nc1nnc(C23CC4CC(CC(C4)C2)C3)s1)c1ccco1
  -12.0 | 0.4% | 1.78µM* | 10.9% | ? | 1.78µM* | -8.2% | -0.5% | 2.13µM* | -2.0%

Only part of the results is shown; the hit share may differ from the screen's.
